Assay outcomes (PubChem BioAssay)
ClpP mod: qHTS Assay for Activators of ClpP. Potency, µM (doses to about 57.5 µM), for the others: top-dose activity change, negative = active. 1.9% of 340,000 active. ATP-dependent Clp protease proteolytic subunit (Bacillus subtilis (strain 168)), P80244. purified B. subtilis ClpP, FRET peptide cleavage, 20 min; active = well fitted falling curve with a large enough effect; inconclusive = small, poorly fitted or top-dose-only effect; inactive = no such curve, though single readings can be large or run the other way; note: potency is the fitted concentration of half-maximal effect; the source files actives as falling curves though it sought activators and does not explain the sign; nearly all actives have a fitted effect of over 65% in size; many hits overshoot -100%
Target sequence (P80244 whole entry, looked up): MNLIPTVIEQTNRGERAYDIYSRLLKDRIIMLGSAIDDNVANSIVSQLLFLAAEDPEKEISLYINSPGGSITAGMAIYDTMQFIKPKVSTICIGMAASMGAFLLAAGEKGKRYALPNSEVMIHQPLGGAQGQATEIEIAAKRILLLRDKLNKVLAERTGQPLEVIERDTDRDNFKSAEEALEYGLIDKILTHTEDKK
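Buffer: 100 mM Tris/HCl pH8, 100 mM KCl, 0.05% low protease BSA, 2.5% glycerol, 0.01% Tween-20. ClpP 10 microg/mL final; 20 min RT; delta FRET normalized to ADEP and DMSO controls.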
TRPML1 inh: human mucolipin-1 channel inhibition; Q9GZU1; TRPML1-inducible cells, Ca2+ dye fluorescence, FDSS; stronger effect = lower value; inhibition of EC80 agonist-evoked calcium signal; activity change, negative = inhibition, % (test concentration not listed); 0.02% of 390,000 active; AID 624415; in the data active means activity change below about -50%; inconclusive means about -30% to -50%; inactive means above about -30%;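 note: stimulus is agonist 54-4 at its EC80 concentration; % is set by controls: 0 for no effect and ±100 for the full control effect; compound concentration not given in the record; the text of the record puts the active cut at -80%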
Target sequence (Q9GZU1 whole entry, looked up): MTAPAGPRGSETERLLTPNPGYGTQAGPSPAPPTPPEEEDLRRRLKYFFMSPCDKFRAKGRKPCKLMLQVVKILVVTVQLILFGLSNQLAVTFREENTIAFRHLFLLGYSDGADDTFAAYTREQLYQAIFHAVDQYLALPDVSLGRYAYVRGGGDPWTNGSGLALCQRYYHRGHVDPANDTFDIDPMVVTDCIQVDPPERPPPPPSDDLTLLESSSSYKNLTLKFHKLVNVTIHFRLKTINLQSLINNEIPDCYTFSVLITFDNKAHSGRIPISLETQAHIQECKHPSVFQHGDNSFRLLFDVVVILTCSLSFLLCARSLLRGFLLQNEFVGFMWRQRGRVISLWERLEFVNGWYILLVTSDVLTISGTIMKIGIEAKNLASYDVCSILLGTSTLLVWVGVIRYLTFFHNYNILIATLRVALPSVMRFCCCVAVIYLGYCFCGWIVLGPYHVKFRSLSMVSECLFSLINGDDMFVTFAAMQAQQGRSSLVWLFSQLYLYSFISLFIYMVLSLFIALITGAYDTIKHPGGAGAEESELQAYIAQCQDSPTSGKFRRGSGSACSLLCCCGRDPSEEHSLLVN
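Calcium fluorescence in TRPML1-DL cells induced overnight with Tet: a 110 s read after compound pin addition, then a 110 s antagonist read after challenge with 54-4 at 4 uM final (EC80).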
gsp antagonist: antagonizes gsp, the McCune-Albright syndrome mutation. gsp-mutant cells, cAMP HTRF, 30 min; control for the full effect not named in the record. 0.4% of 340,000 active. Potency, µM (highest dose often 76.9 µM), for inactives: top-dose activity change, negative = inhibition, actives largely listed as inhibitors; active = falling curve of any shape with a large fitted effect; inconclusive = falling curve, mostly with a smaller effect; inactive = flat or rising curve; cell line not stated here;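 note: intracellular cAMP measured with PDE inhibitor Ro 20-1724 present during compound exposure; potency is the fitted concentration of half-maximal effect; % is set by controls: 0 for no effect and ±100 for the full control effect; nearly all actives have a fitted effect of over 65% in size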
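HTRF cAMP measurement after 30 min RT detection following 30 min, 37C compound treatment alongside […] (added as 300 uM solution) in G418-selected cells seeded at 2000/well and grown 16–24 h.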
TRPV1 PAM: potentiators of human vanilloid receptor 1 (TRPV1) | Q8NER1 | TRPV1-expressing cells, Fluo-8 calcium influx, capsaicin EC20 potentiation; host cell line not named in the record; control for the full effect not named in the record | potentiation, % at 8.33 µM | 0.02% of 320,000 active; active means potentiation above 80%; inconclusive means 30% to 80%; inactive means below 30%; note: 0% is about no effect
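Fluo-8 calcium influx in TRPV1-expressing cells, kinetic read (ex 480/em 520 nm). Compound added and read 3 min for agonist activity, followed by capsaicin at EC20 final and 2 min further read for enhancement.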
Menin-MLL FL inh: inhibitors of human menin-MLL interaction, wild-type MLL peptide; Fluorescence polarization, fluorescein-MLL peptide displacement from menin; FP activity change, % at 61.4 µM; 290,000 tested, under 10 active; AID 1766; inconclusive = falling polarisation curve, or a change in total fluorescence; inactive = total fluorescence flat and polarisation flat or rising; no compound was filed as active; the % refers to the polarisation; negative = inhibition;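 note: % of control where 0% means no effect; inhibitors lower the polarisation; unlabelled MLL peptide was the positive control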
Sfp inh: Sfp phosphopantetheinyl transferase inhibition; Q9F4F7; Biochemical Sfp PPTase activity, qHTS; Potency, µM, without a hit: max response, negative = inhibition, most hits filed as inhibitors; 3.5% of 310,000 active; AID 1490; active = well fitted inhibition curve with a large enough effect; inconclusive = small, poorly fitted or top-dose-only effect, or another doubt; inactive = no such curve, though single readings can be large or run the other way;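 note: the enzyme is Sfp with the accession as filed and its product quenches rhodamine fluorescence; potency is the fitted concentration of half-maximal effect; 0% = enzyme reaction without inhibitor and -100% = no enzyme wells; top concentration of the series not given in the record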
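Buffer: 50 mM Hepes-Na pH 7.6, 10 mM MgCl2, 0.01% Nonidet P-40, 0.01% BSA. Enzyme 15 nM, pre-exposed to compound 15 min; substrates then added and fluorescence change tracked over 30 min.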
gsp agonist: gsp mutant agonism. gsp mutant cells, cAMP HTRF, 30 min; control for the full effect not named in the record. Potency, µM (titrated, usually from 76.9 µM), without a hit: at the top dose activation (cAMP increase), most hits filed as activators. 0.13% of 340,000 active. AID 624287; active = well fitted activation curve with a large enough effect; inconclusive = small, poorly fitted or top-dose-only effect, or another doubt; inactive = no such curve, though single readings can be large or run the other way; cell line not stated here;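 note: phosphodiesterase inhibitor Ro 20-1724 added with compounds to block cAMP breakdown; potency is the fitted concentration of half-maximal effect; nearly all actives have a fitted effect of over 60% in size; about a fifth of the inactives were tested at one dose only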
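Cells stably selected in G418 were plated at 2000/well, grown 16-24 hr, then given compounds in DMSO with the PDE inhibitor […] (300 uM solution added) for 30 min at 37C; cAMP was read by HTRF.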
Starred values were filed as active, the others as inactive; i = inactive; u = inconclusive; x = no result given; & = joins results of further samples; [ ] = dose if it differs, or a comment. Compounds as they come (roughly 4.9% active in at least one column).

SMILES	ClpP mod	TRPML1 inh	gsp antagonist	TRPV1 PAM	Menin-MLL FL inh	Sfp inh	gsp agonist
COc1cccc(C(=O)Nc2nnc(C(C)C)s2)c1	-3.1%	-17	-10%	3	-1.3	15%	-6%
O=C(Nc1c(C(=O)Nc2ccc3c(c2)OCCO3)cnn1-c1ccccc1Cl)c1ccco1	-1.3%	-8	-5%	7	-1.9	-9%	-1%
CCN(CC(=O)Nc1c(F)cccc1F)C(=O)CSC(=S)N1CCCC1	-1.0%	5	3%	1	x	x	4%
CC(C)c1ccc(C(=O)N2CCN(c3cnn(C)c(=O)c3Cl)CC2)cc1	-1.0%	8	-2%	15	-3.5	8%	-3%[15.4 µM]
Cc1cccc(-n2cnc(C(=O)NNC(=S)Nc3ccc(Cl)cc3)c2)n1	0.4%	1	-6%	19	-1.3	12%	40%
COc1ccc(C(CC(=O)O)NC(=O)c2ccco2)cc1OC (centres undefined)	1.2%	-10	-7%	5	u	15%	13%
COc1ccc(Nc2nc3c(C)cccc3cc2C#N)c(OC)c1	-0.6%	62	13%	4	-4.2	6%	-2%
O=C(COc1ccccc1)Nc1ncc2c(n1)CCCC2=O	-0.3%	-7	10%	-1	0.7	5%	-4%
CCOC(=O)/C=c1/s/c(=C/c2ccc3cc(OC)ccc3c2)c(=O)n1CC(=O)NCC1CCCO1 (centres undefined)	x	-10	0%	x	x	x	-5%
CSc1ccc(OC2CCN(Cc3ccccc3)CC2)cc1	-2.7%	-8	17%	13	-0.6	13%	-8%
COc1cc(C(=O)c2ccccc2Cl)c([N+](=O)[O-])cc1OC	3.3%	12	2%	12	0.7	12%	5%
CCCCCCCCCC1(CC(=O)OCC)SCCN1C(N)=O (centres undefined)	1.1%	10	x	x	x	x	-38%[inhibitor]
Cn1ncc([N+](=O)[O-])c1C(=O)NC1CCCCC1	0.6%	-24	4%	26	3.1	16%	-3%
O=C1CCCC(=O)C1CS(=O)(=O)c1ccccc1	x	1	-1%	6	0.4	20µM*	1%
Cc1ccc(S(=O)(=O)N2CCCCC2)cc1NC(=O)COC(=O)c1c(F)cccc1F	x	13	x	14	-1.0	3%	21%[15.4 µM]
O=C(CCc1nnc(-c2ccc3c(c2)OCO3)o1)NC(c1ccccn1)C(F)(F)F (centres undefined)	x	-16	3%	-7	-0.4	u	-24%[15.4 µM]
O=C(CN1CCCCC1)Nc1ccc(NC(=O)c2ccc(Cl)cc2)cc1Cl	14µM*	9	11%	x	-0.4	16%	-1%
COc1ccc(NC(=O)COC(=O)CNC(=O)C2CCCCC2)cc1OC	1.3%	-8	-3%	x	x	x	16%[15.4 µM]
Cc1ccc(N(C)S(=O)(=O)c2cccc(C(=O)Nc3nc4ccccc4[nH]3)c2)cc1	-27%	-23	-34%	u	8.6	14%	0%
C=C(C)C(=O)Nc1cccnc1Oc1ccc(F)cc1F	x	10	-4%	8	6.0	12%	27%[15.4 µM]
O=C(CN1CCN(S(=O)(=O)c2ccc(F)cc2)CC1)Nc1ccc2c(c1)OCO2	-1.9%	-6	-7%[15.4 µM]	-1	3.6	11%	2%
CCCc1cc(=O)oc2cc(OCC(=O)Nc3ccc(S(N)(=O)=O)cc3)ccc12	4.0%	7	-3%	-8	-1.8	-6%	28%
COc1cc(CCC(=O)OCC(=O)Nc2ccc(C(N)=O)cc2)cc(OC)c1OC	3.0%	-3	1%	-2	-0.5	10%	5%
COc1cc(OC)cc(C(=O)n2nc(C)cc2C)c1	2.8%	-9	0%	23	0.6	-1%	-1%
CCOC(=O)c1cc(-c2ccccc2)n(CC(=O)O)c1C	0.5%	-5	6%	5	-0.2	17%	25%

Marked active in Sfp inh, of those listed so far:
Structure	TRPML1 inh	Menin-MLL FL inh	Sfp inh	gsp agonist
O=C1CCCC(=O)C1CS(=O)(=O)c1ccccc1	1	0.4	20µM*	1%

Remaining list, next part:
SMILES	ClpP mod	TRPML1 inh	gsp antagonist	TRPV1 PAM	Menin-MLL FL inh	Sfp inh	gsp agonist
CC1CCC(C(C)C)C(OC(=O)Cn2c(-c3ccc(Cl)cc3)[n+](C)c3ccccc32)C1 (centres undefined)	-7.5%	18	5%	-21	5.3	u	39%
Cn1c(=O)c2cc(NCc3ccccc3)nnc2n(C)c1=O	81%	6	-2%	-9	u	u	-27%
Cc1noc(NS(=O)(=O)c2ccc(NC(=O)CCn3c(=O)oc4ccccc43)cc2)c1C	-2.9%	1	-5%	-21	1.0	-11%	-18%
Cc1c(C(N)=O)sc2ncn(CC(=O)N3CCC(C)CC3)c(=O)c12	-4.7%	5	8%	-7	0.5	15%	-9%
O=C(c1ccco1)N1CCN(C(=O)c2ccccc2NS(=O)(=O)c2ccc(F)cc2)CC1	x	-3	-15%	15	-7.5	17%	1%[15.4 µM]
Cc1cccc(C)c1NC(=O)CN(C)C(=O)c1cccc(S(=O)(=O)N2CCN(c3ccc(F)cc3)CC2)c1	0.6%	1	-15%	8	x	x	12%
Cc1ccc(C(=O)N(Cc2cccnc2)Cc2cc3cc(C)ccc3n3nnnc23)cc1	0.2%	12	3%	-8	-0.6	5%	4%
CCN(C[C@H]1N[C@@](C)(C(=O)OC)[C@H]2C(=O)N(C)C(=O)[C@@H]12)C(=O)c1ccc(C(C)(C)C)cc1	0.7%	-5	9%	x	x	x	x
COc1ccc(CNC(=O)Cn2nc(C(F)(F)F)c(Br)c2C)cc1	3.3%	-2	9%	2	2.1	-1%	16%
CCOc1ccc(Cc2nnc(SCC(=O)c3ccc(OC)cc3)o2)cc1	-1.1%	22	-18%	-4	2.0	4%	-36%[inhibitor]
Cc1ccccc1N1CCN(C(=O)c2ccccc2NC(=O)C2CC=CCC2C(=O)O)CC1 (centres undefined)	1.5%	-1	-12%	-3	4.5	14%	-22%
COc1ccccc1N1CCN(C(=O)c2noc(C(C)C)c2[N+](=O)[O-])CC1	-3.1%	-7	6%	24	x	-1%	4%
CC(NC(=O)c1ccc(Br)cc1)c1ccccc1 (centres undefined)	-1.5%	-8	6%	-2	1.6	12%	5%
N#Cc1sc(NCc2cccc(Cl)c2)nc1Cl	x	19	u	17	-12	5%	24%
Cc1ccc(NC(=O)CN(c2ccc(Cl)cc2)S(=O)(=O)c2cc([N+](=O)[O-])ccc2Cl)c(C)c1	x	6	-33%	10	-2.5	14%	-6%[15.4 µM]
COc1ccc(C(=O)NNC(=O)C(=O)NC(C)c2ccccc2)cc1OC (centres undefined)	-0.4%	-1	9%	4	-0.6	10%	0%
O=C(CCn1c2c(c3ccccc31)CCCC2)NNC(=O)c1cccc([N+](=O)[O-])c1	-1.3%	19	-2%	0	1.3	3%	-22%
C[N+]1=C(/C=C/Nc2ccccc2Cl)C(C)(C)c2ccccc21	0.1%	7	1%	19	3.9	-15%	15%[15.4 µM]
Cc1cc([N+](=O)[O-])nn1CC(=O)NCc1ccccc1	1.9%	-10	1%	-3	-2.4	13%	-23%
O=[N+]([O-])c1cc(/C=N/O)ccc1Oc1ccccc1Cl	x	15	-18%	-21	-1.2	-14%	0%[15.4 µM]
COc1ccc(-c2cc3nc(C)c(CCC(=O)NC(C)CCc4ccco4)c(C)n3n2)c(OC)c1 (centres undefined)	u	4	-2%	-9	3.4	79µM*	-20%
Cc1ccc(Cl)cc1NC(=O)N(C)CCO	-0.1%	-9	4%	22	-4.1	u	-4%
O=C(CSc1nccn1Cc1ccco1)Nc1ccc(F)cc1	-14%&0.4%	-1&10	-1%	5	x	7%	8%
CCc1ccc(N(CC(=O)NC)S(C)(=O)=O)cc1	0.1%	-2	18%	-8	2.2	23%	-14%
O=C1c2ccccc2C(=O)N1CCCC[C@]12Cc3ccccc3C(O1)c1c(c3ccccc3oc1=O)O2	x	x	x	i	-0.2[11.7 µM]	9%	x

(further entries)
SMILES	ClpP mod	TRPML1 inh	gsp antagonist	TRPV1 PAM	Menin-MLL FL inh	Sfp inh	gsp agonist
Cc1cc(C2CCCCC2)n(O)c(=O)c1	-2.7%	-6	1%	12	-1.9	5%&5%	x
COc1cc2c(cc1NC(=O)CSc1ccc(Cl)cc1)oc1ccccc12	-26%	-19	-3%	12	2.8	-28%	-28%
CCc1cccc(NS(=O)(=O)c2ccc3c(c2)NC(=O)C(C)S3)c1 (centres undefined)	0.0%	2	7%	12	x	12%	u
Cc1cc(F)ccc1N1CCC(N2CCN(C(C)C)C(CCO)C2)CC1 (centres undefined)	1.6%	-2	14%	1	0.5	2%	7%
O=C(CCCc1c[nH]c2ccccc12)N1CCN(S(=O)(=O)c2cccs2)CC1	-0.4%	-16	-27%	0	1.5	14%	-23%
CCc1ccc(NC(=O)C(=O)NCCOc2ccccc2Cl)cc1	x	8	-52%	3	-0.6	18%	10%[15.4 µM]
Cc1c(Cl)cccc1NC(=O)C1CCN(c2cnccn2)CC1	x	-10	-15%	12	x	-7%	u
CCN(CC)S(=O)(=O)c1ccc(N2CCOCC2)c(C(=O)O)c1	-0.5%	-1	-4%	-6	-0.3	8%	4%
COc1ccccc1N(CC(=O)NC1CCCC1)S(=O)(=O)c1cccc(C(F)(F)F)c1	0.1%	6	-14%	-6	x	x	22%
CCCCCCCCC1CC(C(=O)Nc2ccccc2)C(=O)O1 (centres undefined)	-5.5%	1	3%	x	x	x	23%
CCC(=O)NC(=S)Nc1c(C)cc(Br)cc1C	x	13	5%	-11	-7.4	20%	14%
CCCCCNC(=O)CSC1=N/C(=C\c2ccc(Cl)c(Cl)c2)C(=O)N1CC	-6.0%	13	12%	3	3.8	4%	2%
O=C(COC(=O)/C=C/c1ccc(F)cc1)Nc1nnc(-c2ccccc2)o1	-1.8%	-2	2%	-10	x	x	-31%[inhibitor]
CCCCN(C(=O)CCCc1nc2ccccc2c(=O)[nH]1)c1c(N)n(CCCC)c(=O)[nH]c1=O	-3.9%	-15	11%	5	x	5%	u
CCS(=O)(=O)Nc1cccc(-c2cn3c(n2)SCC3)c1	-16%	-26	1%	0	2.8	1%	7%
Cc1ccc(S(=O)(=O)N2CCN(C(=O)COC(=O)CNC(=O)c3ccccc3)CC2)c(C)c1	x	-5	-2%	-8	x	x	0%[15.4 µM]
COc1ccccc1N1CCN(CC(=O)c2c(N)n(C)c(=O)n(C)c2=O)CC1	x	0	x	3	0.7	21%	-4%[15.4 µM]
